Screens deposited in PubChem BioAssay by National Center for Advancing Translational Sciences (NCATS).
HSD17B inhib = blocks hydroxysteroid 17-beta dehydrogenase activity. 75,000 compounds, 7.6% hits. recombinant HSD17B10, NADH fluorescence kinetic; many of its hits are not listed in these tables. Potency, µM (highest dose often 57.1 µM), without a hit: top-dose activity change, negative = inhibition, hits mostly inhibitors. Q99714; active means well fitted inhibition curve with a large enough effect; inconclusive means small, poorly fitted or top-dose-only effect; inactive means no such curve, though single readings can be large or run the other way;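 further: the protocol describes HADH2 (HSD17B10) and not the HSD17B4 of the title; nearly all actives have a fitted effect of over 70% in size; most hits overshoot -100% by far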
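20 nM HADH2, pH 9.0 Tris/Tween; cpd preinc 15 min RT; start w/ 1 mM NAD+ + 90 uM b-hydroxybutyryl-CoA; kinetic fluor ex360/em450 q30s x 4 min; delta last-first.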
* hit, by the source's call; u = inconclusive; [ ] = dose if it differs, or a comment. On the % scale 0 is the no-effect control and ±100 the full control effect; potency means the concentration at half of the fitted maximal effect. The list is partial; count on the stated rates, not on these rows.

Preview:
SMILES	HSD17B inhib
Cc1c(C(=O)NCC2CCCO2)sc2nc(-c3ccc(F)cc3)cn12 (stereo unspecified)	10%
O=C(CCOc1ccccc1)NCC(c1ccco1)N1CCCCC1 (stereo unspecified)	-2%
CC1(C)CC[C@]2(C)CC[C@@]3(C)C(=CCC4[C@@]5(C)CCC(O)C(C)(C)C5CC[C@@]43C)C2C1 (stereo partly specified)	11%
CCOc1ccc(OCC)c(NC(=O)C2CCN(c3nn4c(=O)cc(C)nc4s3)CC2)c1	-14%
c1ccc(CCn2nnnc2CN2CCN(C3CCCC3)CC2)cc1	-4%

The whole of this part, repeating the preview:
SMILES	HSD17B inhib
Cc1c(C(=O)NCC2CCCO2)sc2nc(-c3ccc(F)cc3)cn12 (stereo unspecified)	10%
O=C(CCOc1ccccc1)NCC(c1ccco1)N1CCCCC1 (stereo unspecified)	-2%
CC1(C)CC[C@]2(C)CC[C@@]3(C)C(=CCC4[C@@]5(C)CCC(O)C(C)(C)C5CC[C@@]43C)C2C1 (stereo partly specified)	11%
CCOc1ccc(OCC)c(NC(=O)C2CCN(c3nn4c(=O)cc(C)nc4s3)CC2)c1	-14%
c1ccc(CCn2nnnc2CN2CCN(C3CCCC3)CC2)cc1	-4%
CCOC(=O)Cc1csc(/C(=N/O)C(N)=O)n1	6%
COc1cc(CC(=O)OCC(=O)Nc2ncc(Cl)cc2Cl)cc(OC)c1OC	-13%
CC1CCCN(Cc2nc3c(c(=O)n(C)c(=O)n3C)n2CCc2ccccc2)C1 (stereo unspecified)	16%
COc1ccc(NC(=O)C2CCCCN2S(=O)(=O)c2ccc(F)cc2)c(OC)c1 (stereo unspecified)	-8%
CC(=O)c1cccc(NC(=O)C2C3C=CC(C4CC34)C2C(=O)O)c1 (stereo unspecified)	5%
O=C(NCc1ccco1)c1ccc(NC(=O)C2COc3ccccc3O2)cc1 (stereo unspecified)	-1%
O=c1c2cc(O)c(O)cc2oc2cc(O)c(C3OC(CO)C(O)C(O)C3O)c(O)c12 (stereo unspecified)	u
O=C(CSc1nnc(NC(=O)c2ccco2)s1)NC1CCCC1	5%
Oc1cnc2ccccc2c1CN1CCOCC1	32µM*
N#Cc1cc2ccccc2nc1SCc1ccccn1	0%
Nc1nc(Cl)nc2c1ncn2[C@@H]1O[C@@H](CO)[C@@H](O)[C@H]1O	3%
CCc1ccccc1NC(=O)N1C2CCCC1CC(NC(=O)C(C)(C)C)C2 (stereo unspecified)	1%
CC(C)c1nc(-c2ccccn2)no1	10%
CCOc1ccc(N(CC(=O)O)S(=O)(=O)c2cccnc2)cc1	-3%
O=C(NC1CCCC1)c1ccc(CS(=O)(=O)c2ccc(Br)cc2)o1	6%
CC(C)Cn1c(SC(C)C(=O)Nc2ccc3c(c2)OCCO3)nc2ccccc2c1=O (stereo unspecified)	5%
COc1ccc(/C=N/n2c(N)nc3ccccc32)cc1OC	-6%
C=CS(=O)(=O)c1ccc(Oc2ccc(S(=O)(=O)C=C)cc2)cc1	-7%
CCn1c(SCC(=O)Nc2ccccc2C(=O)OC)nc2c1c(=O)n(C)c(=O)n2C	-1%
CCOC(=O)c1cccc(NC(=O)C(C)N2C(=O)c3ccccc3C2=O)c1 (stereo unspecified)	-4%

Molecules from the list above containing an aryl methoxy group, in the order listed:
SMILES	HSD17B inhib
COc1cc(CC(=O)OCC(=O)Nc2ncc(Cl)cc2Cl)cc(OC)c1OC	-13%
COc1ccc(NC(=O)C2CCCCN2S(=O)(=O)c2ccc(F)cc2)c(OC)c1 (stereo unspecified)	-8%
COc1ccc(/C=N/n2c(N)nc3ccccc32)cc1OC	-6%

Next part
SMILES	HSD17B inhib
Cn1c(SCc2ccon2)nc2ccccc2c1=O	3%
CCN(CC)CCn1nc(C)nc1-c1ccccc1O	8%
O=C(CCCOc1ccccc1)Nc1ccncc1	1%
O=C(NCCc1ccncc1)C(F)(F)F	2%
O=C(CCS(=O)(=O)c1cccc2nonc12)N1CCN(c2ccc(F)cc2)CC1	8%
CCOC(=O)N1CCC(NC(=O)Cn2cccc2C(=O)c2ccccc2C)CC1	0%
COc1cc(NC(=O)CSc2nc(C)cs2)cc(OC)c1	5%
CCCCOc1c(Cl)cc(CNC(C)(C)CO)cc1OCC	9%
CCc1cc2c(=O)c(-c3nc4ccccc4n3C)c(C)oc2c(CN2CCN(CCO)CC2)c1O	u
Cc1ccc(NS(=O)(=O)c2cccc(C(=O)N3CCOCC3)c2)cc1	5%
O=C(CCCOc1ccccc1)Nc1nnc(C2CCCO2)s1 (stereo unspecified)	-1%
c1ccc(Cn2nnc3c(N4CCN(Cc5ccc6c(c5)OCO6)CC4)ncnc32)cc1	u
CN(Cc1ccccc1)C(=O)c1cc(-c2ccc(Br)cc2)on1	-3%
COc1ccc(CNC(=O)C(C)Cc2ccccc2)cc1O (stereo unspecified)	-12%
CCc1ccc(CCC(=O)Nc2nc(CC(C)=O)ns2)o1	-29%
Cc1ccc(S(=O)(=O)N2CCC(C(=O)N3CCC(C(=O)NCC4CCCO4)CC3)CC2)cc1 (stereo unspecified)	3%
CC(=O)Nc1cccc(NC(=O)CCn2c(=O)sc3ccccc32)c1	0%
O=C(NCCSc1c[nH]c2ccccc12)c1ccc(Br)o1	-4%
Cc1ccc(OCc2nn3c(-c4n[nH]c5c4CCC5)nnc3s2)cc1	-9%
COc1ccc(/C(O)=C(\C#N)c2nc3ccccc3n2C)cc1OC	-11%
O=c1c(O)c(-c2ccccc2)oc2ccccc12	4%
O=C(c1cc2ccccc2oc1=O)N1CCN(c2ccccn2)CC1	10%
COc1ccc2c(c1)OC1(O)COc3cc(OC)c(OC)cc3C1=C2 (stereo unspecified)	25µM*
Cc1cccc(-n2c(Cc3cc(=O)[nH]c(=O)[nH]3)nnc2SCC(=O)NCc2ccco2)c1	u
CC(=O)c1ccc(NC(=O)N[C@@H](CC(C)C)C(=O)O)cc1	-5%

Ordered by count of non-hydrogen atoms (ascending): part of the list above
SMILES	HSD17B inhib
O=c1c(O)c(-c2ccccc2)oc2ccccc12	4%
COc1cc(NC(=O)CSc2nc(C)cs2)cc(OC)c1	5%
Cc1ccc(NS(=O)(=O)c2cccc(C(=O)N3CCOCC3)c2)cc1	5%

Continued.
SMILES	HSD17B inhib
Cc1cccc(NC(=O)c2cnc3ccccn3c2=O)c1	11%
CCCc1c(C)c2cccc(C)c2[nH]c1=O	-9%
CCOCCNC(=O)c1ccccc1C(=O)NCCOCC	-3%
Cc1ccc(C2Nc3ccccc3-c3nc4ccccc4n32)o1 (stereo unspecified)	16µM*
COC(=O)c1ccc(C(NC(=O)OCc2ccccc2)/C(=C/[C@@H](C)C(=O)NCc2ccc(S(C)(=O)=O)cc2)c2cccnc2)cc1 (stereo partly specified)	10%
CN(C)S(=O)(=O)c1ccc(S(=O)(=O)Nc2ccc3c(c2)oc2ccccc23)cc1	-8%
Cc1n[nH]c(=O)nc1NC1CCCCC1	10%
COc1cccc(S(=O)(=O)Nc2ccc(C(=O)NCc3ccco3)cc2)c1	-10%
CC(=O)Nc1ccc(NC(=O)C2CC(=O)N(c3cccc(C)c3C)C2)cc1 (stereo unspecified)	5%
O=C(O)c1ccccc1OP(=O)(O)O	u
COc1cccc(C(=O)Cn2c(=N)n(C)c3ccccc32)c1	-15%
CCCN1Cc2cccc(C(=O)NCc3ccccc3)c2C1=O	6%
COc1c2occc2c(OC)c2c(=O)cc(C)oc12	6%
CCc1noc(C)c1C(=O)N1CCCC1	11%
CCCCCc1nnc(NC(=O)Cc2cccs2)s1	25µM*
Cc1cccc(C)c1OCCOCCN1CCN(C)CC1	1%
CCN(CC)S(=O)(=O)c1ccc(/C(O)=C2/C(=O)C(=O)N(CCOC)C2c2ccccc2)cc1 (stereo unspecified)	-2%
CCOC(=O)N1CCN(c2c(NCCCN(CC)Cc3ccccc3)c(=O)c2=O)CC1	5%
COc1ccc(-c2nc(N3CCCC3)nc3nn4c(C)cc(C)nc4c23)cc1	25µM*
COc1ccccc1-c1noc(-c2ccccc2)n1	2%
COc1ccc2c(c1OC)C(=O)OC2Nn1cncn1 (stereo unspecified)	u
NC(=O)C1(N2CCCCC2)CCN(C(=O)CSc2nc3ccccc3s2)CC1	-2%
CN1CC[C@@]2(CCCN(C(=O)c3cccc(F)c3)C2)C1	-10%
N#Cc1ccc(CN2CCC3(CC2)CCN(C(=O)c2cnccn2)CC3)cc1	5%
COc1ccccc1N1CCN(CCCC(=O)c2ccc(F)cc2)CC1	-6%

Copied from the entries so far (two entries):
SMILES	HSD17B inhib
N#Cc1ccc(CN2CCC3(CC2)CCN(C(=O)c2cnccn2)CC3)cc1	5%
COc1ccccc1N1CCN(CCCC(=O)c2ccc(F)cc2)CC1	-6%

The list continues:
SMILES	HSD17B inhib
Cc1ccc2cc(C(c3nnnn3C3CCCC3)N3CCOCC3)c(=O)[nH]c2c1C (stereo unspecified)	-4%
CC(C)COCC(CN(Cc1ccccc1)c1ccccc1)N1CCCC1 (stereo unspecified)	2%
CN1CCN(S(=O)(=O)c2ccc(N(C)Cc3cccs3)nc2)CC1	2%
C=CCNC(=O)c1ccccc1NS(=O)(=O)c1ccc(SC)cc1	-9%
Nc1ccc(-n2nnnc2-c2ccco2)cc1	2%
CC(c1ccc(Br)cc1)N1CC23C=CC(O2)C(C(=O)O)C3C1=O (stereo unspecified)	4%
Cc1cc(NC(=O)COC(=O)CSCc2ccc(Cl)c(Cl)c2)no1	-1%
CC(NC(=O)c1ccc(CS(=O)(=O)Cc2ccccc2F)o1)c1ccc2c(c1)OCCO2 (stereo unspecified)	-1%
COC(=O)c1ccc(CSc2ccc3nnc(-c4cccc(F)c4)n3n2)o1	u
Cc1c(C(=O)O)cccc1[N+](=O)[O-]	2%
CCN(CC)S(=O)(=O)c1cccc(C(=O)NCCCN2CCOCC2)c1	9%
CCOC(=O)c1snc2c(=O)[nH]cnc12	32µM*
CC(=O)NC1CC2CCCC(C1)N2CC(=O)N1CCCc2ccccc21 (stereo unspecified)	-13%
CC(=O)[C@H]1CC[C@@H]2[C@]1(C)CC=C1[C@]23C=C[C@]2(C[C@H](O)CC[C@@]12C)[C@H](C(=O)O)[C@@H]3C(=O)O	-8%[11.4 µM]
Cc1ccc(S(=O)(=O)N2CCCC2)cc1S(=O)(=O)N1CCCC1	8%
COCCCNC(=O)c1ccc(CS(=O)(=O)Cc2cccc(C)c2)o1	-7%
CCn1c(C)nc2cc(S(=O)(=O)N3CCCCC3)ccc21	3%
Brc1cccc(-c2nnc(-c3ccccc3)o2)c1	-3%
CCCCCCCCCCCCCCCC(=O)C(F)(F)F	1%
CCC(C)NC(=O)C1CCN(C(=O)c2ccccc2)CC1 (stereo unspecified)	-4%
O=C(CCSCc1ccccc1F)N1CCN(c2ccccn2)CC1	40µM*
NC(N)=NC[C@@H]1CCCCCCN1	11%[11.4 µM]
O=C(NCc1ccc2c(c1)OCO2)c1ccc(NS(=O)(=O)c2ccc3c(c2)OCCO3)cc1	5%
C[C@H](N)C(=O)O	-5%
Cc1cc(C)c(C)c(S(=O)(=O)Nc2ccccc2C(=O)O)c1C	32µM*

(cont.)
SMILES	HSD17B inhib
COc1ncnc(OC)c1NC(=O)c1ccc(F)cc1	9%
CCOC(=O)c1ccccc1NC(=O)c1ccccc1SC	0%
C=Cc1ccc([C@H]2N[C@@H](C(=O)O)CC[C@@H]2C)cc1	5%[11.4 µM]
COc1ccccc1NC(=O)N(c1c(N)n(Cc2ccccc2)c(=O)[nH]c1=O)C1CCCC1	0%
Cn1c(=O)c2cc(S(=O)(=O)N3CCN(c4cccc(C(F)(F)F)c4)CC3)ccc2n(C)c1=O	3%
Cc1csc(NC(=O)c2nc3nccc(C)n3n2)n1	-2%
COc1cc(OC)cc(C(=O)Nc2ccc(S(=O)(=O)N(C)C)cc2)c1	-8%
CC1CCCN(C(=O)COC(=O)c2n[nH]c3ccccc23)C1 (stereo unspecified)	32µM*
CC1CCCN(c2nc3ccsc3c(=O)s2)C1 (stereo unspecified)	u
CN1CCN(c2nc(N3CCN(CCO)CC3)nc3ccccc23)CC1	-6%
COc1ccc(-n2c(Cn3c(=O)sc4ccccc43)nnc2SCC(=O)N2CCOCC2)cc1	0%
COc1ccc(OCCC(=O)NC2=NCCS2)cc1	-5%
CC(=O)c1ccc(OCC(O)COc2ccc(C(C)=O)cc2)cc1	4%
COc1cc(C2CC(=O)c3cnc(N4CCN(Cc5ccccc5)CC4)nc3C2)cc(OC)c1OC (stereo unspecified)	-3%
Cc1ccc2[nH]c(=O)c(CN(CC3CCCO3)S(=O)(=O)c3c(C)ccc4nsnc34)cc2c1 (stereo unspecified)	2%
CCn1c(=O)c(C(=O)Nn2c(C)nc3ccccc3c2=O)c(O)c2ccccc21	-4%
O=S(=O)(NCCOc1cccc2cccnc12)c1ccc(F)cc1	4%
COC(=O)c1ccc(N=c2sc(C(=O)OC)cc(=O)n2C)cc1	6%
Cc1cccc(N2CSC3=C(C#N)C(c4ccc(C)o4)CC(=O)N3C2)c1 (stereo unspecified)	10µM*
CCCCCc1c(C)nc(N2CCc3ccccc3C2)[nH]c1=O	3%
COc1ccc(OC)c(-n2nnnc2SCC(=O)Nc2nc(C)c(C)s2)c1	1%
CO[C@H]1COC(=O)C/C=C\[C@@H](C)COC(=O)[C@H]2CCCN2C(=O)C/C=C\[C@H]1C	-1%[11.4 µM]
CN(C(=O)COC(=O)COc1ccccc1F)C1CCS(=O)(=O)C1 (stereo unspecified)	6%
O=C(Cn1nnc(-c2ccccc2)n1)OC1CCOC1=O (stereo unspecified)	10%
O=C(O)CCc1nc(-c2ccccc2Cl)no1	5%
COc1nc(OC)nc(N2CCC(C(=O)NCc3ccco3)CC2)n1	1%
CC(NC(=O)C1CCC(=O)N1Cc1ccc(F)cc1)c1ccc2c(c1)OCCO2 (stereo unspecified)	10%
O=C(NCc1ccccn1)Nc1cccc(NC(=O)NCc2ccccn2)c1	11%
